From PubChem BioAssay
EPAC2 antag = Validation qHTS for antagonist of cAMP-regulated guanine nucleotide exchange factor 4 (EPAC2); EPAC2 Rap1B BODIPY-GDP exchange, fluorescence; AID 1645886, 2021; actives 1.7% (n = 16,000); Rap guanine nucleotide exchange factor 4 (Homo sapiens), Q8WZA2; Potency, µM (doses to about 112 µM), without a hit: at the top dose activity, negative = inhibition, most hits filed as inhibitors; active = well fitted inhibition curve with a large enough effect; inconclusive = small, poorly fitted or top-dose-only effect; inactive = no such curve, though single readings can be large or run the other way;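 also: 100% = activation by cAMP agonist control; nearly all actives have a fitted effect of over 40% in size; the record reuses the description of the EPAC1 agonist screen; inactives centre near -10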
Target sequence (Q8WZA2 whole entry, looked up): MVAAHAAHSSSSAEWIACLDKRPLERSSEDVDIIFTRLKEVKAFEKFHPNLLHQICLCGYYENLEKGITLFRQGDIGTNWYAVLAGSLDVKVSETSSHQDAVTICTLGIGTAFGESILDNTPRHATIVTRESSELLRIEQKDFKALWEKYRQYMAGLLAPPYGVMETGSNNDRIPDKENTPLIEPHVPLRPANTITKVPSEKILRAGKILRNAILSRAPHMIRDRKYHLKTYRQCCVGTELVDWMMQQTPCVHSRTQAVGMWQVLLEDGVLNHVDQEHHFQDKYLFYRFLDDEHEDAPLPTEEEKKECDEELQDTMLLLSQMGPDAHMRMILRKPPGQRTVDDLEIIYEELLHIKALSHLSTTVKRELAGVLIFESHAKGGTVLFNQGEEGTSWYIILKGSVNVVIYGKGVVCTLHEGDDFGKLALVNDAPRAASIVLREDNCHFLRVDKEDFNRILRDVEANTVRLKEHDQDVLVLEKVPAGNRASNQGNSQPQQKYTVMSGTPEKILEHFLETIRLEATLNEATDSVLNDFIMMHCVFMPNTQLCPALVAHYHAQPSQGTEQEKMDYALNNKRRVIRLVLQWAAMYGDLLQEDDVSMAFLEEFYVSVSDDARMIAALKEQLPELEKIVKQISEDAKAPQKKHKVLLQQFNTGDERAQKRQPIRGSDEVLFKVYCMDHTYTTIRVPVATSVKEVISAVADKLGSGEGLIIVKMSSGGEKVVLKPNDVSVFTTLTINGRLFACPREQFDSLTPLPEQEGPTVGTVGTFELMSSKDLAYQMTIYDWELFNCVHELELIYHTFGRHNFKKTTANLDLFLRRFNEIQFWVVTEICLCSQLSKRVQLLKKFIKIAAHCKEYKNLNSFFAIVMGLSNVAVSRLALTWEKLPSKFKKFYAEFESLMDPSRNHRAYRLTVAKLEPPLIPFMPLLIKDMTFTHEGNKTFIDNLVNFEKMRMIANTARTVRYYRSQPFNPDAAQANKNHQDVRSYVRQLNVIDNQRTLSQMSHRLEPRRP
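Fluorescent exchange read-out: 100 nM EPAC2 with 250 nM RAP1B–BODIPY-GDP and 50 uM GDP; BODIPY-GDP release lowers fluorescence. Read at 480/540 nm every 5 min for 30 min at room temperature; normalized to 6.5 mM cAMP.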
Starred values were filed as active, the others as inactive; ? = inconclusive; & = joins results of further samples; [ ] = dose if it differs, or a comment. Potency is read from the fitted curve at half-maximal effect. An excerpt; count on the stated rates, not on these rows.

The opening 17 compounds as a preview:
SMILES	EPAC2 antag
Cc1ccc2oc(-c3ccccc3)c(O)c(=O)c2c1	-11%
COc1ccccc1CNc1ncncc1-c1cccc(NS(C)(=O)=O)c1	-16%
C[C@@H]1CN(Cc2ccc3c(c2)CN(Cc2cccc4c2OCO4)CCO3)C[C@H](C)O1	9%
O=C1O[C@H]2[C@H](O)[C@@H]1OC(O)[C@H]2O (stereo partly specified)	14%
NS(=O)(=O)c1cc(C2(O)NC(=O)c3ccccc32)ccc1Cl (stereo unspecified)	-12%
C[C@]12CCC3c4ccc(OS(=O)(=O)O)cc4CCC3C1CCC2=O (stereo partly specified)	-20%
Cc1nc2cnc(N3CCOCC3)nc2n(Cc2cccs2)c1=O	-13%
Cc1noc(C)c1C(=O)N1CCC2(CCCN(c3ccccn3)C2)CC1	-22%
CC1=CC(=O)C2=C(C)CCC3C(C)C(=O)OC3C12 (stereo unspecified)	-14%
C[C@H]1[C@H]2CC[C@H]3C4CC=C5C[C@@H](N(C)C)CC[C@]5(C)C4CC[C@]23CN1C (stereo partly specified)	-12%
c1ccc2sc(-c3cc4c(c(OC5CCOC5)c3)OCCN(Cc3cccn3-c3nccs3)C4)nc2c1 (stereo unspecified)	-14%
O=c1c(-c2cccc(F)c2)nc2cncnc2n1Cc1ccccc1	?
CCCCCCCCCCCCSCCOCCO	13%
COc1ncc2ncc(=O)n(CCC#N)c2n1	-10%
C[C@]12CCC(=O)C=C1CCC1C2C(O)C[C@]2(C)C1CC[C@]2(O)C(=O)COC(=O)CCC(=O)O (stereo partly specified)	-9%
CN1[C@@H]2CC[C@H]1CC(OC(c1ccccc1)c1ccccc1)C2 (stereo partly specified)	29%&-7%&-39%
O=C(Nc1ccccc1)[C@@H]1CC=C[C@@H]2CCN(Cc3ccccc3)C(=O)[C@@H]21	-8%

The whole of this part, repeating the preview:
SMILES	EPAC2 antag
Cc1ccc2oc(-c3ccccc3)c(O)c(=O)c2c1	-11%
COc1ccccc1CNc1ncncc1-c1cccc(NS(C)(=O)=O)c1	-16%
C[C@@H]1CN(Cc2ccc3c(c2)CN(Cc2cccc4c2OCO4)CCO3)C[C@H](C)O1	9%
O=C1O[C@H]2[C@H](O)[C@@H]1OC(O)[C@H]2O (stereo partly specified)	14%
NS(=O)(=O)c1cc(C2(O)NC(=O)c3ccccc32)ccc1Cl (stereo unspecified)	-12%
C[C@]12CCC3c4ccc(OS(=O)(=O)O)cc4CCC3C1CCC2=O (stereo partly specified)	-20%
Cc1nc2cnc(N3CCOCC3)nc2n(Cc2cccs2)c1=O	-13%
Cc1noc(C)c1C(=O)N1CCC2(CCCN(c3ccccn3)C2)CC1	-22%
CC1=CC(=O)C2=C(C)CCC3C(C)C(=O)OC3C12 (stereo unspecified)	-14%
C[C@H]1[C@H]2CC[C@H]3C4CC=C5C[C@@H](N(C)C)CC[C@]5(C)C4CC[C@]23CN1C (stereo partly specified)	-12%
c1ccc2sc(-c3cc4c(c(OC5CCOC5)c3)OCCN(Cc3cccn3-c3nccs3)C4)nc2c1 (stereo unspecified)	-14%
O=c1c(-c2cccc(F)c2)nc2cncnc2n1Cc1ccccc1	?
CCCCCCCCCCCCSCCOCCO	13%
COc1ncc2ncc(=O)n(CCC#N)c2n1	-10%
C[C@]12CCC(=O)C=C1CCC1C2C(O)C[C@]2(C)C1CC[C@]2(O)C(=O)COC(=O)CCC(=O)O (stereo partly specified)	-9%
CN1[C@@H]2CC[C@H]1CC(OC(c1ccccc1)c1ccccc1)C2 (stereo partly specified)	29%&-7%&-39%
O=C(Nc1ccccc1)[C@@H]1CC=C[C@@H]2CCN(Cc3ccccc3)C(=O)[C@@H]21	-8%
O=C1CC[C@@H]2C[C@@]3(C[C@@H]4CCN1[C@H]24)Nc1cc([N+](=O)[O-])ccc1NC3=NCc1ccccc1	-16%
Cc1cccc(CNc2ncncc2-c2ccccc2C)c1	-27%
OCC(S)CS (stereo unspecified)	-16%
COc1ccc(CN2CCCC(c3nc(-c4ccncc4)ncc3-c3ccccc3)C2)c(OC)c1OC (stereo unspecified)	-3%
CN1[C@@H]2CC(OC(=O)[C@H](CO)c3ccccc3)C[C@@H]1[C@H]1O[C@H]12 (stereo partly specified)	?
O=C1CCN(Cc2ccccc2)CCN1[C@H](CO)Cc1ccccc1	?
COc1cccc2c1CCC1CC(=O)CC[C@@]21C (stereo partly specified)	?
CCCCC(CC)COS(=O)(=O)O (stereo unspecified)	-22%
c1ccc(-c2cccc(N3CC4(CCNCC4)C3)c2)cc1	-23%
COc1ccc(-c2nc3cnc(Nc4cccc(OC)c4)nc3n(C[C@H]3CCCO3)c2=O)cc1	-26%
Clc1ccccc1-c1nc(NC2CCNCC2)c2ccccc2n1	-17%
c1cncc(OC2CCN(Cc3ccc4c(c3)CN(Cc3ccc5c(c3)OCCO5)CCO4)CC2)c1	-15%
O=C(OCCN1CCCCC1)c1c[nH]c2ccccc12	-3%&-22%
O=C(c1cc(C(F)(F)F)cc(C(F)(F)F)c1)N1CCC[C@@]2(CCN(c3ccccc3)C2)C1	?
Clc1ccc(N2CCN(Cc3cc4ccccn4n3)CC2)cc1	-2%
COc1ccc(OC)c2c(C)ccnc12	-17%
Cc1ccccc1-c1cc(Nc2ccc(F)cc2)ncn1	?
COC(=O)CC1C(C)(C)C(O)C2CC3=C4CC(O)OC(c5ccoc5)[C@]4(C)CCC3[C@@]1(C)C2=O (stereo partly specified)	-27%
Cc1cnccn1	-4%
CCC(=O)O[C@H]1[C@H](O[C@@H]2[C@@H](C)[C@H](O[C@H]3C[C@@](C)(OC)[C@@H](O)[C@H](C)O3)[C@@H](C)C(=O)O[C@H](CC)[C@@](C)(O)[C@H](O)[C@@H](C)C(=O)[C@H](C)C[C@@]2(C)O)O[C@H](C)C[C@@H]1N(C)C	32µM*
Clc1ccc2nc(-c3ccccc3)[nH]c2c1	-21%
Cc1cccc(CNC(=O)c2cnn(-c3nccc(-c4ccccc4C(F)(F)F)n3)c2C)n1	-22%
Nc1nc2ncc(CNc3ccc(C(=O)NC(CCC(=O)O)C(=O)O)cc3)nc2c(=O)[nH]1 (stereo unspecified)	-5%
CC1C(O)CC2C(C(=O)O)=CO[C@@H](O[C@H]3OC(CO)C(O)C(O)C3O)C21 (stereo partly specified)	-2%
COc1ccc(CN2CCOc3ccc(C(O)c4cccnc4)cc3C2)c(F)c1 (stereo unspecified)	-39%
C[N+]1(CC(=O)c2ccc(Oc3ccccc3)cc2)CCOCC1	-18%
Cc1ccc(SC[C@H](Cc2ccccc2)N2CC[C@@H](C(C)(C)C)CCC2=O)cc1	4%
O=c1nc2ccccc2c2n1C[C@H](CN1CCN(c3ccccc3)CC1)N2	-12%
CS(=O)(=O)N1CCC2(CC1)CN(c1cccc(-c3ccccc3)c1)C2	?
CN(C)CCCOc1nn(Cc2ccccc2)c2ccccc12	3%[56.6 µM]
CCNc1ncc2ncc(=O)n(Cc3cccs3)c2n1	-34%
Cc1ccccc1C1(CC(=O)N2CCCCC2c2cccnc2)CC(=O)N(C2CCCC2)C1=O (stereo unspecified)	?
COc1ccc(-c2cn(Cc3ccc4c(c3)C(=O)c3ccccc3C4=O)nn2)cc1	-3%
Additional results follow:
SMILES	EPAC2 antag
Cc1cc(O)c2c(c1)O[C@@]1(C)CC[C@H]3C(C)(C)CCCC34CO[C@@H]2[C@H]41 (stereo partly specified)	?
COc1cc(-c2cccnc2)cc2c1OCCN(C(=O)Cc1csc(C)n1)C2	-11%
COc1cc(O)c2c(=O)cc(-c3ccccc3)oc2c1	-16%
CNc1ccc(/C=C2\C=Cc3ccccc32)cc1	?
COc1ccccc1-c1ccnc(-n2ncc(C(=O)N3CCN(C(C)C)CC3)c2-c2ccco2)n1	8%
Nc1ncnc2c1ncn2[C@H]1CC[C@@H](CO)O1	9%&13%
Nc1ccc(S(=O)(=O)Nc2ccccc2)cc1	-18%
COc1cc2c(cc1OC)C1CC(=O)C(CC(C)C)CN1CC2 (stereo unspecified)	6%
O=C(NCCO)c1cn(C2CCCN(Cc3cccc(C(F)(F)F)c3)C2)nn1 (stereo unspecified)	5%
Cc1c(C(=O)NCCc2cccnc2)cnn1-c1nccc(-c2ccccc2F)n1	-28%
Cc1ccccc1-c1cccc(CN2CCc3nnc(C(NS(C)(=O)=O)C(C)C)n3CC2)c1 (stereo unspecified)	7%
CS(=O)(=O)N1CCC2(CCN(C(=O)Nc3cccc(F)c3)CC2)CC1	-23%
CC(C)(CNC(=O)c1cnn(-c2nccc(-c3cc4ccccc4o3)n2)c1C1CC1)N1CCOCC1	-36%
CC1CC2C(C(O)C[C@]3(C)C2CC[C@]3(O)C(=O)CO)[C@]2(C)C=CC(=O)C=C12 (stereo partly specified)	-10%
N[C@@H](Cc1ccc(O)c(I)c1)C(=O)O	0%
O=Nc1ccc2oc(=O)ccc2c1	-11%
COc1ccc(-n2c(=O)cnc3cnc(Oc4ccccc4)nc32)cc1	-11%
Cc1ccc(CNc2nc(CN3CCN(C=O)CC3)nc3ccccc23)o1	-3%
CCC1COCCS(=O)(=O)N1Cc1cccc(Cl)c1 (stereo unspecified)	-30%
Cc1nc2cc(NC(=O)[C@@H]3C[C@@H](Sc4ccccn4)CN3Cc3cccc(F)c3)ccc2s1	0%
Cc1noc(C)c1C(=O)N1CCC2(CCCN(c3ccncc3)C2)CC1	-26%
Oc1cc(-c2nc3ccccc3s2)cc2c1OCCN(Cc1cccn1-c1ccc(Cl)cn1)C2	-11%
O=c1c(-c2ccc(F)cc2)nc2cncnc2n1Cc1ccc(F)cc1	-17%
CNc1cc(NS(=O)(=O)c2ccc(N)cc2)nc(NC)n1	?
O=C1CC[C@@H](C(=O)N[C@H]2C[C@@H]2c2ccccc2)N1	-11%
COc1ccc(NC(=O)c2ccc(-c3ccc(-c4noc(C)n4)cc3C)cc2)cc1OCCN(C)C	?
Cc1nn(C)cc1CN1CCOc2ccc(CN3CCC(Oc4cccnc4)CC3)cc2C1	-10%
CS(=O)(=O)Nc1cc(C(=O)N2CCNC(=O)C2)c2c(c1)ncn2CCc1ccccc1	-7%
O=C(Oc1ccccc1C(=O)O)c1ccccc1O	?
O=C(c1csnn1)N1CCC[C@@]2(CCN(Cc3nccs3)C2)C1	-18%
COc1ccc(C)cc1N1C(=O)[C@@H]2C[C@H]1CN2Cc1cccc(OC)c1O	0%
COc1ccc(-c2nc3cnc(OC)nc3n(-c3ccc(OC)cc3)c2=O)cc1	-13%
COc1cc(=O)n2c(c1C(=O)NCc1ccco1)CCN(C(=O)c1cccnc1SC)CC2	-5%
COC(=O)C1OC(=O)C2O[C@@]23[C@]2(C)C(OC(C)=O)CC4C(C)(C)C(=O)CC[C@]4(C)C2CC[C@@]13C (stereo partly specified)	-13%
Cc1ccnc2c(O)cccc12	7%
CN1Cc2c(N)cccc2C(c2ccccc2)C1 (stereo unspecified)	10%&19%
CO[C@H]1[C@H](NC(=O)c2ccco2)c2ccccc2C12CCN(Cc1cnc(N(C)C)s1)CC2	-10%
CC(=O)C1(C)CC2(CC(C)(C)OC2=O)C(=O)O1 (stereo unspecified)	4%
COc1ccc(-c2nc3cnc(OC)nc3n(Cc3cccc(OC)c3)c2=O)cc1	-10%
CN1CCC(=O)N([C@H](CSc2ccccc2)c2ccccc2)CC1	?
COc1ccc(C(=O)N2CCOc3ccc(CN4CCN(c5ccccn5)CC4)cc3C2)o1	-3%
N#Cc1cccc(-c2nc3cnc(Oc4cccc(Cl)c4)nc3n(C3CC3)c2=O)c1	-2%
CS(=O)(=O)Nc1cccc(-c2cc(Nc3ccccc3)ncn2)c1	-19%
C#Cc1cccc(C(=O)NCc2nc(-c3ccccc3NC(=O)C3CCCO3)oc2C)c1 (stereo unspecified)	-5%
CCCc1c(OCCCOc2ccc(OCC(=O)O)cc2)ccc(CC=O)c1O	45µM*
O=C(Nc1ccccc1)N1CCCC2(CCN(C(=O)c3cccc(F)c3)CC2)C1	-16%
CCC1CN(Cc2cccc3nccnc23)Cc2cc(OC)ccc2O1 (stereo unspecified)	?
COC(=O)N1CCC2(CC1)CN(c1ccc(-c3ccccc3)cc1)C2	-28%
O=C(c1cnccn1)N1CCC[C@@]2(CCN(c3ncccn3)C2)C1	-9%
CN(C)c1ncc2nc(-c3cc(F)cc(F)c3)c(=O)n(-c3ccccc3)c2n1	7%
More structures follow.
SMILES	EPAC2 antag
COc1ccc(Cl)cc1-c1cc2c(c(OC)c1)OCCN(Cc1cccn1-c1nccs1)C2	?
COc1ccc2[nH]cc(CCNc3ncnc4ccc(-c5ccccc5OC)cc34)c2c1	-30%
CC1(C)[C@@H]2CC[C@@]1(C)[C@H](OC(=O)CSC#N)C2	-16%
O=C(c1cnccn1)N1CCC[C@@]2(CCN(Cc3nccs3)C2)C1	-12%
COC(=O)C1C(=O)C(C(=O)/C=C/c2ccco2)C(=O)CC1(C)C (stereo unspecified)	5%
Cc1nc(C)n(CC(=O)NCC2Cc3cc(-c4ccsc4)cc(Cl)c3O2)n1 (stereo unspecified)	-8%
COc1ccc2c(c1)CCc1cnc(-n3ncc(C(=O)NCCCc4ccncc4)c3C)nc1-2	-15%
CNc1ccnc(-c2cccc(NS(C)(=O)=O)c2)n1	-21%
COc1ncc2nc(-c3cccc(C#N)c3)c(=O)n(CCC#N)c2n1	-26%
CC[C@@H]1[C@H]2CCCC(=O)N3CC[C@@H](C[C@@H]1OC(=O)NCc1ccccc1)[C@@H]23	-49%
C=C1CCC(C2CC(=O)OC2=O)C(=O)CCC2C1CC2(C)C (stereo unspecified)	0%
COc1cc2c(cc1OC)C(C(C(=O)N(CCc1ccc(OC)c(OC)c1OC)CCc1ccc(OC)c(OC)c1OC)c1ccccc1)=NCC2 (stereo unspecified)	?
CN1CCN(c2ncc3nc(-c4ccccc4)c(=O)n(CCc4ccccc4)c3n2)CC1	-16%
